Compound activity from PubChem.
Ecoli growth = blocks Escherichia coli growth; OD600, 23 h; stronger effect = lower value; OD600 absorbance (no concentration beside the values); 0.21% of 330,000 active; AID 1053175;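 active means OD600 absorbance below the run mean of sample wells minus 3.6 SD, in any replicate, cut at about 0.56 in these data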;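 further: stock transfer was 300 nL into about 60 µL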
Ecoli rRNA inh = inhibits bacterial ribosomal RNA function over humanized ribosomes. 1.6% of 350,000 active. GFP signal change (wild-type ribosome), % (test concentration not listed). AID 720706. E. coli WT GFP vs humanized-ribosome RFP mutants, fluorescence, 24 h; stronger effect = lower value; DMSO median 0, no signal -100;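 active means significant combined selectivity score with lowered wild-type GFP, culture density cut under 30%, mutant RFP and density less affected; inactive means any of these conditions unmet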; further: one replicate is shown; some compounds called inactive have numbers as strong as hits
HNF4A DNA FP = change in binding of human HNF4 alpha to DNA. HNF4a-FITC DNA binding, fluorescence polarization, 1 h. activity change, % at 10 µM. 0.3% of 360,000 active; in the data active means activity change above about 30%, passing the limit was not always enough;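 further: controls were the assay level and a saturating level of protein; the project sought stronger binding though the title names inhibitors; some compounds called inactive have numbers as strong as hits; positive values seem to mean higher polarization but the record does not say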
Target sequence (P41235 whole entry, looked up): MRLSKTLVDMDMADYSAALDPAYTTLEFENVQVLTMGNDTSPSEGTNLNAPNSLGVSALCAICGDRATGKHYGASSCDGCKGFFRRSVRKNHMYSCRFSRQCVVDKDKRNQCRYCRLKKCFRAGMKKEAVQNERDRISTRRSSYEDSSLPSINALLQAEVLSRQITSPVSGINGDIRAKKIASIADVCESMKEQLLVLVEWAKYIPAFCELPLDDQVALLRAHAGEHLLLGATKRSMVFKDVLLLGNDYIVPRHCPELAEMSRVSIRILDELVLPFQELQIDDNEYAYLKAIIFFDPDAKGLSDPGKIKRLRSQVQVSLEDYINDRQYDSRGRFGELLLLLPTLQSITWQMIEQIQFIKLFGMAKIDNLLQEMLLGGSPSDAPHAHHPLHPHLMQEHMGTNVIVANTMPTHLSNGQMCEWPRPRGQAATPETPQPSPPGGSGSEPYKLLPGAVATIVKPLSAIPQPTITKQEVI
Vif A3G = inhibitors of Vif binding to APOBEC3G peptide, primary screen, biochemical, TR-FRET, GST-Vif 1-94, biotin-A3G peptide, dose response retest (AID 1117319). TR-FRET GST-Vif / biotin-A3G peptide binding; higher % means a stronger effect; test concentration not given here; strong numbers were not always called active. inhibition, %, or IC50 in µM where a hit was titrated. 0.57% of 260,000 active;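 active means above the screen mean plus three standard deviations and confirmed in dose response; inconclusive means results disagree or hit not tested in dose response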;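 further: Vif residues 1-94 fused to GST binding biotinylated APOBEC3G peptide 110-148; 0% = full assay without inhibitor and 100% = GST in place of GST-Vif; retest series ran down from 100 µM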
AF4-AF9 inh = inhibitors of human MLL-AF4/AF9 interaction | P42568 | AlphaScreen, biotin-AF4 peptide binding to FLAG-AF9 | inhibition, % at 10 µM | 0.47% of 350,000 active | AID 651704;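 active means every replicate reaching a set inhibition limit, whatever the replicate mean, cut at about 25% in these data; inconclusive means mean inhibition reaches that limit but some replicates miss it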;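 further: 0% = plate neutral control median and 100% = total signal loss; the record names both 10 and 1 µM as test concentration; the first replicate is given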
FGF22 binding = FGF22 (human) thermal shift binding | Q9HCT0 | recombinant FGF22 thermal shift, SYPRO orange fluorescence; percent of sucrose octasulfate shift, DMSO zero | calls only at 9.99 µM | 1.5% of 340,000 active | AID 651658;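 active means melting point raised past a set limit in the mean and every replicate; inconclusive means no clear call; three in four hits are not shown here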
Target sequence (Q9HCT0 whole entry, looked up): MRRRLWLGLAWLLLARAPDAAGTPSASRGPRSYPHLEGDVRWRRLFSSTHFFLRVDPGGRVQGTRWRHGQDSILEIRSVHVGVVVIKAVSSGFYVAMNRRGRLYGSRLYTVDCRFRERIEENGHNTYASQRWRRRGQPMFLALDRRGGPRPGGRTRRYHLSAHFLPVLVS
ALR H2O2 inh = inhibitors of human sulfhydryl oxidase ALR; P55789; purified ALR, DTT oxidation, H2O2 HRP-luminol luminescence; inhibition, % (test concentration not listed); 3.8% of 290,000 active;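 active means mean and each replicate at 75% or more; inconclusive means only one of the two met; inactive means neither met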;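 further: stock transfer was 7.5 nL into about 7.5 µL; 0% = neutral wells and 100% = wells with inactivated enzyme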
Target sequence (P55789 whole entry, looked up): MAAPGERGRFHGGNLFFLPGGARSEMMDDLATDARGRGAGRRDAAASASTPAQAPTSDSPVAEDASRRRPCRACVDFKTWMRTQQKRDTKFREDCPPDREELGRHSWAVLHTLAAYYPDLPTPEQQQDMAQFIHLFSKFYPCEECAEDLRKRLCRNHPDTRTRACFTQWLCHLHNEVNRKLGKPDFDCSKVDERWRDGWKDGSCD
Ecoli rRNA inh OD600 = recorded beside Ecoli rRNA inh, whose call it bears; OD600 change, %; measured here: OD600 growth;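 optical density of the mix in the first replicate; 0 = DMSO median and -100 = no signal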
Ecoli rRNA inh RFP = also measured in Ecoli rRNA inh; calls as there; RFP signal change, %; measured here: RFP humanized mutant strains;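 first replicate; 0 = DMSO median and -100 = no signal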
An asterisk follows results filed as active; i = inactive; ? = inconclusive; / = no result given. Not all compounds are listed; rates above refer to the full screens.

Results follow in this order: Ecoli growth, Ecoli rRNA inh, Ecoli rRNA inh OD600, Ecoli rRNA inh RFP, HNF4A DNA FP, Vif A3G, AF4-AF9 inh, FGF22 binding, ALR H2O2 inh
- Cc1nn(CC(=O)Nc2cccc(O)c2)c(=O)c2ccccc12
 : /, 3.8, 6.4, -6.4, 2.7, 0.0%, -6.7, i, /
- Cc1noc(C)c1NC(=O)N[C@@H]1CC[C@@H](CC(=O)N2CCN(C)CC2)O[C@H]1CO
 : /, 1.9, -6.5, 0.2, /, /, 0.8, i, /
- C[C@H]1CN([C@@H](C)CO)C(=O)Cc2cc(NS(=O)(=O)c3ccc(F)cc3)ccc2O[C@H]1CN(C)Cc1ccc(Oc2ccccc2)cc1
 : /, 1.1, -0.9, -0.4, /, /, 0.3, i, /
- CCc1cc(-c2n[nH]c(C)c2-c2nc3ccccc3n2C)c(O)c(CN2CCN(C)CC2)c1O
 : 0.7, 1.7, 0.8, 0.5, 1.2, 8.7%, 25.2*, i, 59.5
- COc1ccc(/C=C(/NC(=O)c2ccccc2Cl)C(=O)NCCCC(=O)O)cc1
 : 0.659, 19.8, 12.7, 1.5, -4.4, /, -1.1, i, -6.3
- CC(C)NC(=O)N1[C@@H](CO)[C@@H](c2ccccc2)C12CN(Cc1ccccc1)C2
 : /, -1.3, -6.6, 4.1, /, /, 3.3, i, /
- CCOC(=O)C1C(C(=O)OCC)C2C(=O)C3C(C(=O)OCC)C(C(=O)OCC)C3C(=O)C12 (stereo not drawn)
 : /, 3.4, 7.5, -2.9, -2.5, /, -2.2, i, /
- CCCCn1c(N)c(N(CCC(C)C)C(=O)C(C)N2C(=O)c3ccccc3C2=O)c(=O)[nH]c1=O (stereo not drawn)
 : 0.647, 15.5, 6.1, 0.3, 2.1, 4.7%, -5.9, /, -0.3
- O=C(/C=C/c1cccc(F)c1)OCC(=O)N1CCc2ccccc21
 : 0.738, 19.4, 21.3, 3.0, 6.6, /, -3.5, i, 0.8
- O=C(C[C@@H]1C[C@H]2c3cc(NC(=O)NC4CCCC4)ccc3O[C@H]2[C@H](CO)O1)NC1CCCCC1
 : /, -6.0, -5.4, 0.1, /, /, -0.3, i, /
- O=C(NCCc1ccccc1)c1ccco1
 : 0.754, /, /, /, 3.5, 3.1%, /, /, -1.3
- OCCCNc1ncnc2[nH]ncc12
 : 0.701, 6.7, 20.6, -1.9, 4.5, 19.0%, -0.9, i, /
- COc1ccc(CCNC(=O)C2CC2)cc1
 : 0.717, 10.6, 6.0, 0.2, 3.6, /, 0.0, i, -18.8
- c1ccc2oc(-c3csc(NCC4CCCO4)n3)cc2c1 (stereo not drawn)
 : 0.711, -11.9, -10.0, 0.3, 8.1, /, 10.4, /, /
- O=C(Nc1c2c(nn1-c1ccc([N+](=O)[O-])cc1)CS(=O)(=O)C2)c1cccs1
 : 0.668, -1.2, 1.5, -1.6, 2.8, /, -3.2, i, -2.4

Single records, as listed above. Order of screens: Ecoli growth, Ecoli rRNA inh, Ecoli rRNA inh OD600, Ecoli rRNA inh RFP, HNF4A DNA FP, Vif A3G, AF4-AF9 inh, FGF22 binding, ALR H2O2 inh
O=C(NCCc1ccccc1)c1ccco1 is listed as 0.754, /, /, /, 3.5, 3.1%, /, /, -1.3
CCCCn1c(N)c(N(CCC(C)C)C(=O)C(C)N2C(=O)c3ccccc3C2=O)c(=O)[nH]c1=O (stereo not drawn) is listed as 0.647, 15.5, 6.1, 0.3, 2.1, 4.7%, -5.9, /, -0.3

Going on with the list:
Results follow in this order: Ecoli growth, Ecoli rRNA inh, Ecoli rRNA inh OD600, Ecoli rRNA inh RFP, HNF4A DNA FP, Vif A3G, AF4-AF9 inh, FGF22 binding, ALR H2O2 inh
- COc1ccc2[nH]c(=O)c(CN(c3ccccc3)S(=O)(=O)c3ccccc3)cc2c1
 : 0.731, 11.0, 6.7, 3.4, 4.0, -15.1%, -1.1, i, -8.2
- C[C@@H](O)C#Cc1ccc([C@H]2[C@H]3CN(C(=O)c4ccc(F)cc4)CCCCN3[C@H]2CO)cc1
 : /, 1.9, 9.4, -2.0, /, /, -8.4, i, /
- O=C(c1cc2ncccn2n1)N1CCc2c([nH]c3ccccc23)C1c1ccccc1F (stereo not drawn)
 : 0.73, -25.1, -29.4, -3.9, -1.1, 1.3%, 7.0, i, 0.9
- CC1CCCC(C)N1C(=O)COC(=O)c1ccc(O)cc1 (stereo not drawn)
 : 0.692, /, /, /, -3.5, ?, /, /, -10.1
- Cc1ccc2nc(-c3ccc(S(=O)(=O)N4CCCCC4)cc3)cn2c1
 : 0.713, 17.4, 24.9, 1.2, -0.6, /, -0.6, i, -22.2
- CCCOc1ccc2ccccc2c1/C=C1\SC(=O)NC1=O
 : 0.681, -42.0, -78.8, -11.2, 1.9, /, 2.5, i, 49.8
- CCc1ccc(NC(=O)NCC2CCN(Cc3cccc(Cl)c3)CC2)cc1
 : 0.62, 12.6, 9.7, 13.3, -3.3, -7.5%, 1.0, i, -7.7
- COc1ccc(C(=O)OC(C)CN2CCN(C)CC2)cc1OC (stereo not drawn)
 : 0.701, /, /, /, 1.6, -3.2%, /, /, /
- C=CCN1C(=O)CSc2ccc(C(=O)NCc3cccs3)cc21
 : 0.691, 3.0, -6.4, 1.0, -7.5, /, -0.9, i, -13.2
- CCCC#Cc1ccc2c(c1)O[C@@H](CN(C)C(=O)c1cccnc1)[C@H](C)CN([C@@H](C)CO)S2(=O)=O
 : /, -2.7, -14.4, 1.8, /, /, -2.0, i, /
- O=C(C[C@H]1CC[C@@H]2[C@H](COC[C@@H](O)CN2C(=O)Nc2ccccc2)O1)NCc1ccccc1F
 : /, 6.2, 14.4, -0.7, /, /, -0.2, i, /
- C[C@H](O)C#Cc1cnc2c(c1)C(=O)N([C@@H](C)CO)C[C@H](C)[C@@H](CN(C)C(=O)Nc1ccc(C(F)(F)F)cc1)O2
 : /, 2.4, 1.3, -0.6, /, /, -1.3, i, /
- Cc1[nH]nc2c1C(C1CC=CCC1)C(C#N)=C(N)O2 (stereo not drawn)
 : 0.705, /, /, /, 1.1, -0.9%, /, /, /
- O=C1[C@H]2CC3CCC2(O3)[C@@H]2OCCCN12 (stereo partly drawn)
 : /, 8.6, 2.7, -4.6, 2.0, /, -4.2, i, -8.8
- CNC[C@H]1OCCCC[C@H](C)Oc2ccc(NC(=O)Nc3ccccc3)cc2C(=O)N([C@H](C)CO)C[C@@H]1C
 : /, 3.6, 3.8, -0.9, /, /, 5.0, i, /

Next compounds follow:
Results follow in this order: Ecoli growth, Ecoli rRNA inh, Ecoli rRNA inh OD600, Ecoli rRNA inh RFP, HNF4A DNA FP, Vif A3G, AF4-AF9 inh, FGF22 binding, ALR H2O2 inh
- CC(Oc1ccc(Br)cc1)c1nc2c3ccccc3nc(=S)n2[nH]1 (stereo not drawn)
 : 0.667, -53.0, -80.4, -29.2, -3.5, 0.3%, -3.8, i, 19.5
- COc1ccccc1NC(=O)CC(=O)c1cccc([N+](=O)[O-])c1
 : 0.683, 7.0, 12.5, -1.5, -1.4, -4.2%, ?, i, -2.7
- Cc1cc(/C=N/n2cnnc2)c(C)n1-c1cccc(Cl)c1
 : /, /, /, /, 0.5, >100µM*, /, /, -2.9
- O=C(CCCN1C(=O)S/C(=C/C=C/c2ccccc2)C1=O)Nc1ccc(C(=O)O)cc1
 : 0.691, -8.9, -7.4, -6.1, 1.0, /, 2.8, i, /
- Cc1ccccc1-n1c(-c2cccnc2)n[nH]c1=S
 : 0.771, 11.3, 4.4, 1.8, -0.7, 2.0%, 10.8, i, 49.7
- COc1ccc(C(=O)NCC2CCCO2)cc1 (stereo not drawn)
 : 0.601, /, /, /, -0.9, /, /, /, -3.6
- CC1/C(=C\c2ccc(Cl)cc2)C(=O)C2CC1C2(C)C (stereo not drawn)
 : 0.67, /, /, /, -0.8, -2.2%, 12.9, /, -12.8
- COc1ccccc1NC(=O)N(C)C[C@H]1OCc2ccccc2-c2ccccc2C(=O)N([C@@H](C)CO)C[C@H]1C
 : /, -0.2, -4.1, -2.1, /, /, -12.1, i, /
- O=C(NCC(=O)N1CCc2ccccc2C1)c1ccccc1Cl
 : 0.684, 2.8, 9.8, 0.0, -6.1, -5.4%, 2.0, i, -4.4
- O=C(COC(=O)CCC(=O)c1ccc(F)cc1)Nc1ccc2[nH]c(=O)[nH]c2c1
 : /, 4.1, 8.1, 0.9, -0.9, /, -5.8, i, -7.9
- CCCNC(=O)N1CC2(CN(S(=O)(=O)CC)C2)c2c([nH]c3cc(OC)ccc23)[C@@H]1CO
 : /, -2.9, 3.9, -2.2, /, /, -3.6, i, /
- O=C(CSc1ncn[nH]1)c1ccccc1
 : 0.679, /, /, /, 1.3, -1.2%, /, /, 44.2
- O=C(NC(Cc1ccccc1)C(=O)O)/C(=C/c1cccc([N+](=O)[O-])c1)NC(=O)c1ccco1 (stereo not drawn)
 : 0.667, -34.1, -42.4, -4.9, -1.1, 1.7%, 0.0, i, 22.0
- CCSc1nc(C)cc(C)c1S(=O)(=O)c1ccccc1C
 : 0.79, /, /, /, -2.9, 30.6%, /, /, -5.2
- CN(CCCn1ccc(N)nc1=O)Cc1ccco1
 : /, -2.1, -1.8, -0.3, -0.5, -0.4%, -0.6, i, /

(continued)
Results follow in this order: Ecoli growth, Ecoli rRNA inh, Ecoli rRNA inh OD600, Ecoli rRNA inh RFP, HNF4A DNA FP, Vif A3G, AF4-AF9 inh, FGF22 binding, ALR H2O2 inh
- COc1ccc(NC(=O)C2Cc3c(-c4ccc(Cl)cc4)ccnc3O2)cc1 (stereo not drawn)
 : /, 10.7, -4.6, 7.8, 6.9, /, -1.3, i, /
- Cc1cc2nnc(SCC(=O)N3CCCCC3)n2c(N)n1
 : 0.602, 0.0, 1.9, -6.2, 1.4, 4.0%, -1.3, i, -4.1
- C[C@H]1COC(=O)[C@@H](CC(=O)OC(C)(C)C)C/C=C\C[C@H](CC(=O)NCCO)C(=O)N1
 : /, 1.2, 4.2, 24.9, -1.4, /, 3.9, i, 1.2
- CCCn1cc(C(CC(=O)O)C(=O)O)c2ccccc21 (stereo not drawn)
 : 0.658, /, /, /, 0.0, 9.1%, /, /, 1.5
- COc1ccc(N(CC(=O)Nc2ccccc2Cl)S(=O)(=O)c2ccc(C)cc2)cc1OC
 : 0.701, -17.6, -23.8, -0.5, 1.6, /, -1.5, /, /
- Cc1ccc(-c2ccc(=O)n(Cc3cc(C)ccc3C)n2)cc1
 : 0.72, 7.8, 9.0, 3.2, -3.3, -5.9%, -2.9, i, -3.9
- CN(C)CCNC(=O)c1cccc2c(-c3ccc(F)c(F)c3)coc12
 : /, 6.2, 3.2, -1.6, 0.5, /, 6.1, i, /
- C/C(=C\c1ccccc1)CN1CCN(C)CC1
 : 0.677, 14.3, 6.7, -0.1, 3.4, /, -6.2, i, 0.4
- N#CCCN(CCC#N)c1nnc(-c2ccccc2)s1
 : 0.63, 12.2, 0.7, -3.1, -2.4, -1.7%, -17.3, i, 0.4
- COc1ccc(OC)c(S(=O)(=O)NNC(=S)Nc2ccc3c(c2)OCO3)c1
 : 0.677, -2.8, 11.1, 1.5, 6.3, 5.9%, 2.1, i, 94.0*
- N#Cc1nc(Cc2cccc3ccccc23)oc1NCCN1CCOCC1
 : 0.734, /, /, /, 1.4, -2.9%, /, /, 1.8
- CC(C)[C@H](NC(=O)OC(C)(C)C)C(=O)N1CCC(C(=O)N[C@@H](C)C(=O)Nc2ccc(F)cc2)CC1
 : 0.585, 3.1, 12.5, -3.2, 0.8, -5.8%, 0.2, i, -2.1
- COc1ccc(OCC(=O)N2CCN(S(=O)(=O)c3ccc(Cl)cc3)CC2)cc1
 : 0.694, /, /, /, 3.4, 0.4%, /, /, -2.6
